# AF4-AF9 inh = inhibitors of human MLL-AF4/AF9 interaction; P42568; AlphaScreen, biotin-AF4 peptide binding to FLAG-AF9; inhibition, % at 10 µM; 350,000 tested, 0.47% active;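 active = every replicate reaching a set inhibition limit, whatever the replicate mean, cut at about 25% in these data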;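 also: 0% = plate neutral control median and 100% = total signal loss; the record names both 10 and 1 µM as test concentration; the first replicate is given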
# Target sequence (P42568 whole entry, looked up): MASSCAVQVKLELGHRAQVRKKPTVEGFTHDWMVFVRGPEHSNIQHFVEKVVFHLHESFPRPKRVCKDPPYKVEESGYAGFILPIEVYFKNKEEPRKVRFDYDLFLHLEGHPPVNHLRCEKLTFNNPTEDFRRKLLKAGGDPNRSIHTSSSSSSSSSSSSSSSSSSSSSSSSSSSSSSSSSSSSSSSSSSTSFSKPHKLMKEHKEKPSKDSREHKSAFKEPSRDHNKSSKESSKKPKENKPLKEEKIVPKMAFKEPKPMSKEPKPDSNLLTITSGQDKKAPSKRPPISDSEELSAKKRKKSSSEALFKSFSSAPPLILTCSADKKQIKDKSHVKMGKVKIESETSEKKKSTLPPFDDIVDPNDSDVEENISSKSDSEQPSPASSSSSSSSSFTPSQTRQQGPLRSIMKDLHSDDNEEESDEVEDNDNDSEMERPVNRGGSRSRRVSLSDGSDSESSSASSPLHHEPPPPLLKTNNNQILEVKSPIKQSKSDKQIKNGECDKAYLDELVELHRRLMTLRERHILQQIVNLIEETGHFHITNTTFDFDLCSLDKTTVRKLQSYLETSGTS
# Ecoli rRNA inh = inhibits bacterial ribosomal RNA function over humanized ribosomes; E. coli WT GFP vs humanized-ribosome RFP mutants, fluorescence, 24 h; active compounds read low; DMSO median 0, no signal -100; GFP signal change (wild-type ribosome), % (test concentration not listed); 350,000 tested, 1.6% active; AID 720706;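 active = significant combined selectivity score with lowered wild-type GFP, culture density cut under 30%, mutant RFP and density less affected; inactive = any of these conditions unmet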; also: one replicate is shown; some compounds called inactive have numbers as strong as hits
# Ecoli rRNA inh OD600 = second read-out of Ecoli rRNA inh, no call of its own (marks repeat the call); OD600 change, %; measured here: OD600 growth;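 optical density of the mix in the first replicate; 0 = DMSO median and -100 = no signal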
# Ecoli rRNA inh RFP = further read-out of Ecoli rRNA inh, marked with its call; RFP signal change, %; measured here: RFP humanized mutant strains;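 first replicate; 0 = DMSO median and -100 = no signal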
# Active calls of the source: *; & = joins results of further samples.
no.	Structure	AF4-AF9 inh	Ecoli rRNA inh
1	O=C(C[C@@H]1CC[C@@H]2[C@H](COC[C@H](O)CN2S(=O)(=O)c2ccc(Oc3ccccc3)cc2)O1)NC1CCC1	4.9	0
2	O=C(Nc1cccc(C(F)(F)F)c1)c1csc([C@@H]2O[C@H](CO)[C@@H](O)[C@H]2O)n1	-4.6	10
3	Nc1c([N+](=O)[O-])cc2c3c(cccc13)CC2	2.9	-21
4	O=C(NCc1cccnc1)c1csc([C@@H]2O[C@H](CO)[C@H](O)[C@H](O)[C@H]2O)n1	-0.9	18
5	C/C=C/c1ccc([C@@H]2[C@@H](CO)N3C(=O)CN(Cc4ccc(F)cc4)C[C@@H]23)cc1	5.1	-4
6	C[C@H](CO)N1C[C@H](C)[C@@H](CN(C)C(=O)NC2CCCCC2)Oc2ccc(NC(=O)CCC(F)(F)F)cc2CC1=O	0.7	2
7	CNC[C@@H]1Oc2ccc(NC(=O)CCC(F)(F)F)cc2C(=O)N([C@@H](C)CO)C[C@H]1C	-20	-3
8	O=S(=O)(c1cccs1)N1CCCCN2[C@H](CO)[C@H](c3ccc(-c4ccccc4)cc3)[C@@H]2C1	-6.3	0
9	Cc1noc(C)c1NC(=O)Nc1ccc2c(c1)C(=O)N([C@@H](C)CO)C[C@@H](C)[C@@H](CN(C)Cc1ccncc1)OCCCC[C@@H](C)O2	-3.7	0
10	COc1ccc(NC(=O)N(C)C[C@@H]2Oc3ccc(NC(=O)NC(C)C)cc3C(=O)N([C@@H](C)CO)C[C@H]2C)cc1	-2.7	3
11	CCN(C[C@H]1[C@H](c2ccccc2)[C@H](CO)N1C(=O)COC)S(C)(=O)=O	-4.8	0
12	COC(=O)C[C@@H]1CC[C@@H]2[C@H](COc3ccc(NC(=O)Nc4ccc(C#N)cc4)cc3C(=O)N2C)O1	-6.6	-6
13	O=C(Cc1ccccn1)NCC[C@H]1CC[C@H](NC(=O)Nc2ccccc2)[C@H](CO)O1	0.1	2
14	O=C(C[C@H]1CC[C@@H]2[C@H](COC[C@@H](O)CN2CC2CCOCC2)O1)N1CCOCC1	-6.5	1
15	COCc1cn(CC[C@H]2CC[C@H](NC(=O)Nc3c(C)noc3C)[C@H](CO)O2)nn1	3.7	0

no.	Ecoli rRNA inh OD600	Ecoli rRNA inh RFP
1	-13	-2.3
2	7	-2.2
3	-47	-3.7
4	22	0.2
5	-24	-0.3
6	2	-1.7
7	-2	-1.4
8	-11	6.0
9	-1	-0.5
10	7	-1.8
11	-1	-2.3
12	-11	-1.0
13	-1	-0.8
14	3	-4.8
15	10	0.8

# (further entries)
no.	Structure	AF4-AF9 inh	Ecoli rRNA inh
16	COc1ccc(CC(N)c2csc(Nc3ccc(S(C)(=O)=O)cc3)n2)cc1 (configuration not stated)	1.1	-2
17	CCNC(=O)C[C@@H]1CC[C@@H]2[C@@H](COc3ccc(NC(=O)c4ccccc4)cc3C(=O)N2C)O1	-0.7	2
18	CN(C)C(=O)C[C@@H]1CC[C@@H]2[C@H](COC[C@H](O)CN2C(=O)C2CC2)O1	-1.0	-5
19	O=C(NC1Cc2ccccc2C1)[C@H]1[C@H](CO)[C@H]2Cn3c(ccc(C4=CCCC4)c3=O)[C@@H]1N2CC1CC1	3.5	-4
20	CC(C)CC#Cc1cnc2c(c1)C(=O)N([C@H](C)CO)C[C@H](C)[C@H](CN(C)C(=O)CN1CCOCC1)O2	-4.1	0
21	CCN1[C@H](C(=O)Nc2nccs2)[C@@H](CO)[C@@H]2Cn3c(ccc(-c4ccccc4OC)c3=O)[C@@H]21	-2.0	2
22	C[C@H]1CN([C@@H](C)CO)C(=O)c2cccc(NC(=O)C3CC3)c2O[C@@H]1CN(C)S(=O)(=O)c1ccccc1	-6.7	0
23	C[C@H](CO)N1C[C@H](C)[C@H](CN(C)S(=O)(=O)c2cccs2)OCc2cnnn2CCCC1=O	0.3&0.2	10&1
24	Cc1ccc(S(=O)(=O)N(C)C[C@@H]2Oc3ccc(NC(=O)NC(C)C)cc3C(=O)N([C@@H](C)CO)C[C@@H]2C)cc1	-2.0	-5
25	CC1(C(=O)NS(=O)(=O)Cc2ccccc2)CCN1C(=O)Cc1ccc(-c2ccccc2)cc1 (configuration not stated)	-2.2	-13
26	COc1ccc(CNc2cccnc2Cl)cc1	-0.8	-5
27	C[C@@H]1CN([C@H](C)CO)C(=O)c2cc(NC(=O)Nc3ccc(F)cc3)ccc2O[C@H]1CN(C)S(=O)(=O)c1cccs1	0.5	-6
28	COc1ccc(S(=O)(=O)Nc2cccc3c2O[C@@H](CN(C)Cc2ccc(C(F)(F)F)cc2)[C@H](C)CN([C@@H](C)CO)C3=O)cc1	2.2	-2
29	O=C(C[C@H]1C[C@@H]2c3cc(NS(=O)(=O)c4ccccc4)ccc3O[C@@H]2[C@H](CO)O1)NCC1CC1	-0.2	0
30	CCN(C[C@H]1N[C@@H](CO)[C@@H]1c1ccc(C2=CCCC2)cc1)C(=O)c1cccnc1	-0.2	-1

no.	Ecoli rRNA inh OD600	Ecoli rRNA inh RFP
16	-8	3.1
17	4	0.1
18	-9	-2.9
19	-10	8.1
20	0	-6.0
21	2	-0.7
22	-3	-1.2
23	2&-1	0.8&-3.5
24	-11	0.8
25	-12	-0.3
26	-5	-3.0
27	-11	4.2
28	1	0.7
29	10	-2.6
30	-7	7.2

# Full records as entered above. Screens in order: AF4-AF9 inh, Ecoli rRNA inh, Ecoli rRNA inh OD600, Ecoli rRNA inh RFP
# Record of COc1ccc(CNc2cccnc2Cl)cc1 : -0.8, -5, -5, -3.0
# Record of CN(C)C(=O)C[C@@H]1CC[C@@H]2[C@H](COC[C@H](O)CN2C(=O)C2CC2)O1 : -1.0, -5, -9, -2.9

# In a second layout: entries from further up
nr	mol	AF4-AF9 inh	Ecoli rRNA inh	Ecoli rRNA inh OD600	Ecoli rRNA inh RFP
29	O=C(C[C@H]1C[C@@H]2c3cc(NS(=O)(=O)c4ccccc4)ccc3O[C@@H]2[C@H](CO)O1)NCC1CC1	-0.2	0	10	-2.6
16	COc1ccc(CC(N)c2csc(Nc3ccc(S(C)(=O)=O)cc3)n2)cc1 (configuration not stated)	1.1	-2	-8	3.1

# Continuation.
no.	Structure	AF4-AF9 inh	Ecoli rRNA inh
31	CCC(=O)Nc1ccc2c(c1)OC[C@@H](C)N(CCC(F)(F)F)C[C@H](C)[C@H](OC)CN(C)C2=O	0.1	-4
32	CN(C)C(=O)[C@H]1[C@H](CO)[C@H]2Cn3c(ccc(-c4ccccc4)c3=O)[C@@H]1N2C(=O)C1CCC1	-0.3	2
33	C[C@H](CO)N1C[C@H](C)[C@H](CN(C)C(=O)Nc2cccc3ccccc23)OCCCC[C@H](C)Oc2ccc(NC(=O)Nc3ccc(F)cc3)cc2C1=O	-0.8	-2
34	O=C(C[C@H]1C=C[C@H](NC(=O)C2CC2)[C@@H](CO)O1)Nc1ccccc1	0.2	3
35	CN1C(=O)c2cc(NC(=O)C3CCOCC3)ccc2OC[C@@H]2O[C@H](CC(=O)NCC3CC3)CC[C@H]21	-2.1	7
36	Cc1ccc(S(=O)(=O)N(C)C[C@H]2OCCCC[C@@H](C)Oc3ccc(NC(=O)Nc4c(C)noc4C)cc3C(=O)N([C@H](C)CO)C[C@@H]2C)cc1	-1.9	1
37	C[C@@H]1CN([C@@H](C)CO)C(=O)c2cccc(NS(=O)(=O)c3cn(C)cn3)c2O[C@@H]1CN(C)S(C)(=O)=O	-1.4	1
38	COc1ccc(NC(=O)Nc2ccc3c(c2)CC(=O)N([C@H](C)CO)C[C@@H](C)[C@@H](CN(C)S(=O)(=O)c2ccc(OC)cc2)O3)cc1	4.2	-3
39	O=C(OCCO)c1c(C2=CCCCC2)oc2c1C(OCCO)CCC2 (configuration not stated)	-1.6	1
40	C[C@@H]1CCCCO[C@@H](CN(C)C)[C@H](C)CN([C@H](C)CO)C(=O)c2cc(NS(=O)(=O)c3cccs3)ccc2O1	-0.5	3
41	COc1ccc2c3c([nH]c2c1)[C@H](CO)N(C(=O)C1CCC1)CC31CCN(Cc2cccc(F)c2)CC1	13	-2
42	COc1ccc(C(=O)N2C[C@@H]3[C@H](c4ccccc42)[C@H](CO)N3C(=O)c2ccc(F)cc2)cc1	-1.0	2
43	O=C(Nc1ccc(F)cc1)N1CCCCN2[C@H](C1)[C@@H](c1ccc(-c3cccc(F)c3)cc1)[C@@H]2CO	-3.9	-55
44	COC[C@@H]1CCCN1c1ccc2c(c1)O[C@H](COCc1ccccc1)CN([C@@H](C)c1ccccc1)S2(=O)=O	-3.2	4
45	COC(=O)[C@]12C[C@H](CC(=O)N3CCCCC3)C(=O)N(Cc3ccccc3)C1=C[C@H](C1CCCC1)O[C@@H]2C	1.8	-6

no.	Ecoli rRNA inh OD600	Ecoli rRNA inh RFP
31	1	0.1
32	-2	-1.9
33	0	1.0
34	8	-2.3
35	5	-2.3
36	9	-1.9
37	22	1.2
38	1	2.5
39	4	1.8
40	5	-0.6
41	-6	3.2
42	5	-1.1
43	-68	-7.7
44	0	-5.5
45	-10	2.4

# Continued.
no.	Structure	AF4-AF9 inh	Ecoli rRNA inh
46	Cc1cc2nc(C(C)(C)C)c(CC3CCCCC3)n2c(C)c1Br	3.7	-5
47	COc1cccc(C#Cc2ccc3c(c2)O[C@@H](CN(C)S(=O)(=O)c2ccccc2F)[C@H](C)CN([C@@H](C)CO)S3(=O)=O)c1	-0.5	6
48	O=C(CN1CCOCC1)NCC[C@@H]1CC[C@H](NC(=O)Cc2ccccn2)[C@H](CO)O1	-0.1	2
49	COC[C@H]1CCCN1c1ccc2c(c1)O[C@H](COCc1ccccc1)CN([C@@H](C)c1ccccc1)S2(=O)=O	-3.3	-2
50	CCNC(=O)C[C@@H]1CC[C@@H]2[C@H](COC[C@@H](O)CN2C(=O)Nc2ccc3c(c2)OCO3)O1	-0.5	2
51	C#CCNC(=O)C[C@@H]1C[C@@]2(C(=O)OC)CCCCC=C2N(CCc2ccc(OC)c(OC)c2)C1=O	1.6	-7
52	Cc1ccc(S(=O)(=O)N[C@H]2CC[C@@H](CCn3cc(C(C)C)nn3)O[C@@H]2CO)cc1	-0.8	1
53	CO[C@@H]1CN(C)C(=O)c2cc(NC(=O)C3CC3)ccc2OC[C@@H](C)N(Cc2cccc(F)c2)C[C@H]1C	1.6	-3
54	C[C@@H]1CN([C@H](C)CO)C(=O)Cc2cc(NC(=O)Nc3cccc4ccccc34)ccc2O[C@@H]1CN(C)C(=O)Nc1ccc(F)cc1	3.0	-7
55	CCC(=O)Nc1ccc2c(c1)OC[C@@H](C)N(Cc1ccccc1C(=O)O)C[C@H](C)[C@@H](OC)CN(C)C2=O	-2.9	0
56	O=C(NC1CCCCC1)N1CC(=O)N2[C@@H](CO)[C@H](c3ccc(-c4cccc(F)c4)cc3)[C@@H]2C1	-0.2	-2
57	O=S(=O)(N[C@H]1CC[C@H](CCn2cc(-c3cccc(F)c3)nn2)O[C@@H]1CO)c1ccc(Cl)cc1	-0.6	-17
58	COCC(=O)Nc1ccc2c(c1)[C@H]1C[C@H](CC(=O)NCc3ccccc3OC)O[C@H](CO)[C@H]1O2	0.2	-1
59	C[C@H](CO)N1C[C@H](C)[C@@H](CN(C)Cc2ccc(C(=O)Nc3ccccc3N)cc2)Oc2ccc(NC(=O)Cc3cn(C)c4ccccc34)cc2CC1=O	0.1	-3
60	O=C(NCc1cccnc1)c1cc(C2CCCN(C(=O)C3CCCCC3)C2)on1 (configuration not stated)	-1.2	1

no.	Ecoli rRNA inh OD600	Ecoli rRNA inh RFP
46	1	-11
47	5	-1.9
48	10	-1.6
49	13	-2.0
50	-6	-1.1
51	-5	5.8
52	3	-2.3
53	-18	-0.7
54	-4	2.7
55	2	-1.6
56	-30	14
57	-51	40
58	-2	-3.1
59	5	-1.0
60	2	-1.9

# Later entries:
no.	Structure	AF4-AF9 inh	Ecoli rRNA inh
61	COc1ccc(S(=O)(=O)N[C@H]2CC[C@@H](CC(=O)N3CCC(Cc4ccccc4)CC3)O[C@H]2CO)cc1	2.8	-1
62	C[C@@H]1CN([C@H](C)CO)S(=O)(=O)c2ccc(C#Cc3ccccc3)cc2O[C@H]1CN(C)S(=O)(=O)c1cn(C)cn1	-1.0	-2
63	CCNC(=O)C[C@H]1CC[C@H]2[C@@H](COC[C@H](O)CN2C(=O)C2CCOCC2)O1	-1.5	7
64	COc1ccc(CN(C)C[C@H]2Oc3ccc(NS(=O)(=O)c4c(C)noc4C)cc3C(=O)N([C@@H](C)CO)C[C@@H]2C)cc1	-1.8	1
65	C[C@@H]1CCCCO[C@H](CN(C)Cc2ccc(C(F)(F)F)cc2)[C@@H](C)CN([C@@H](C)CO)C(=O)c2cc(NS(=O)(=O)c3cn(C)cn3)ccc2O1	3.2	-1
66	CC(=O)N(C)C[C@H]1Oc2ncc(C3=CCCC3)cc2C(=O)N([C@H](C)CO)C[C@H]1C	-5.7	0
67	CNC[C@@H]1Oc2ccc(NC(=O)Nc3ccc(OC)cc3)cc2CC(=O)N([C@H](C)CO)C[C@@H]1C	2.3	8
68	O=C(N[C@@H]1CC[C@H](CCn2cc(C3(O)CCCC3)nn2)O[C@@H]1CO)C1CCCCC1	-0.9	0

no.	Ecoli rRNA inh OD600	Ecoli rRNA inh RFP
61	-17	-1.1
62	-18	4.4
63	0	32
64	9	1.1
65	-8	4.6
66	0	-3.0
67	10	-1.9
68	4	-1.2

# Only part of the results is shown; count on the stated rates, not on these rows.
